Screens (PubChem BioAssay)
Calb FLC: C. albicans growth inhibition with fluconazole, primary screen, CaCi-2 strain, Alamar Blue fluorescence; actives 0.57% (n = 300,000); C. albicans CaCi-2 (fluconazole-resistant clinical isolate) + fluconazole, 48 h; growth inhibition, % (no concentration beside the values);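 active = most replicates above 75%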;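 note: all wells also contain fluconazole at 8 µg/ml as a sub-toxic cotreatment; 0% = median of DMSO wells and 100% = median of geldanamycin control wells; wells of about 8 µL received 7.5 nL stock; the first replicate is given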
LANA-H2B inh: blockers of LANA interaction with H2A/H2B – biochemical, FP readout, HTS, primary screen. Protein LANA1 (Human herpesvirus 8 type P (isolate GK18)), Q9QR71. AID 2629, 2010. actives 0.6% (n = 320,000). cell-free LANA-H2A/H2B peptide, fluorescence polarization. inhibition, % (concentration not given with the values); in the data active = inhibition mostly above about 10%, no sharp cut-off; inactive = mostly below about 6.7%;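 note: stock transfer was 7.5 nL into about 10 µL; 0% = median of vehicle wells and 100% = median of positive control wells; one replicate is shown; the record names a cut of 25% in any replicate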
T cruzi inh: inhibitors of intracellular T. cruzi growth, primary screen, luminescence, NIH3T3 host cells | T. cruzi beta-gal in NIH3T3, 90 h | actives 1.4% (n = 300,000) | inhibition, % (test concentration not listed);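 active = mean inhibition across valid replicates above about 55%, limit read from the data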;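 note: signal also drops with host cell toxicity which is not excluded here; 0% = plate median of DMSO wells and 100% = zero luminescence signal; higher percent means less beta-gal luminescence so fewer parasites; stock transfer was 50 nL into about 50 µL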
ALR H2O2 inh: inhibitors of human ALR sulfhydryl oxidase, primary screen, biochemical, H2O2 detection, HRP-luminol luminescence, single point; inhibition, % (no concentration beside the values); purified ALR, DTT oxidation; AID 485317, 2010; FAD-linked sulfhydryl oxidase ALR (Homo sapiens), P55789; actives 3.8% (n = 290,000);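 active = mean and each replicate at 75% or more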;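 note: stock transfer was 7.5 nL into about 7.5 µL; 0% = neutral wells and 100% = wells with inactivated enzyme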
Target sequence (P55789 whole entry, looked up): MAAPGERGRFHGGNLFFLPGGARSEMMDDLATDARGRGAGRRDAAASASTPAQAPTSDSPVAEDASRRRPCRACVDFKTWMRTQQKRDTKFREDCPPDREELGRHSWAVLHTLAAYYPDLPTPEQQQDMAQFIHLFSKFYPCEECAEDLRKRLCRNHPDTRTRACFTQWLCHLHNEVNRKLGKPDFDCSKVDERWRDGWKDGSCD
Beta apoptosis: inhibitors of cytokine-induced beta cell apoptosis, primary screen, luminescence; INS-1E cytokine-induced death, ATP luminescence, 48 h; percent of positive-control rescue, neutral wells zero; protection from apoptosis, % (test concentration not listed); actives 0.8% (n = 300,000);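 active = all replicates at 75% or more, or half of them and the mean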;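 note: 0% = cytokine-treated negative control wells and 100% = positive control rescue; higher means more ATP so stronger rescue from cytokine killing; wells of about 40 µL received 100 nL stock; the first replicate is given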
A1 inh: caspase 3/7 activation in MEF A1-2A-BIM cells, primary screen, A1 inhibitor project, cell-based, luminescence, HTS; Caspase-Glo 3/7 luminescence, 3 h; percent of clofoctol response, vehicle zero; caspase activation, % (no concentration beside the values); actives 0.066% (n = 330,000); AID 2462, 2010;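 active = over half of replicate activation scores above 10%, or exactly half above 10 with the replicate mean above 10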;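 note: wells of about 30 µL received 50 nL stock; many hits fall short of the cut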
rRNA inh HTS: reduced GFP signal of wild-type E. coli, primary screen, bacterial rRNA inhibitor project, GFP/RFP fluorescence, OD600, single point; E. coli WT GFP vs humanized-ribosome RFP mutants, 24 h; hits give low values; DMSO median 0, no signal -100; GFP signal change (wild-type ribosome), % (concentration not given with the values); actives 1.6% (n = 350,000); AID 720706, 2013;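 active = significant combined selectivity score with lowered wild-type GFP, culture density cut under 30%, mutant RFP and density less affected; inactive = any of these conditions unmet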; note: one replicate is shown; some compounds called inactive have numbers as strong as hits
Beta2AR agonist: beta2AR agonists driving receptor internalization, primary screen, cell-based, FAP fluorogen, flow cytometry; actives 0.43% (n = 340,000); response, % (no concentration beside the values); Am2.2-beta2AR cells; reference of the scale not given here;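 active = response above a set limit, near 3 SD of response in nonfluorescent compounds, cut at about 42% in these data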;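 note: stock transfer was 100 nL into about 11 µL; a reference agonist was the positive control; negative values mostly stem from fluorescent compounds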
Target sequence (P07550 whole entry, looked up): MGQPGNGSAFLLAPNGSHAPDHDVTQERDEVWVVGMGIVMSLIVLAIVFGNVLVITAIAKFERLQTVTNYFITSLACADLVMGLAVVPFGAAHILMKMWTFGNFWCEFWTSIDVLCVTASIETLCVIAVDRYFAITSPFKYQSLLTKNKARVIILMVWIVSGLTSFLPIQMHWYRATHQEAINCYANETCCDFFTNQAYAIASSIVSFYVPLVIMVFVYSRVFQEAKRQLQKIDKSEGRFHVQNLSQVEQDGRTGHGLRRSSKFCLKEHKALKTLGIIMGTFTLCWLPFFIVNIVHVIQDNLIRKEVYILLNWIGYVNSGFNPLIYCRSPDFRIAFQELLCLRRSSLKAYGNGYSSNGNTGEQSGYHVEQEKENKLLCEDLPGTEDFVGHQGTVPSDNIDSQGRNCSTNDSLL
rRNA inh HTS OD600: second read-out of rRNA inh HTS, no call of its own (marks repeat the call); OD600 change, %; measured here: OD600 growth;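 optical density of the mix in the first replicate; 0 = DMSO median and -100 = no signal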
rRNA inh HTS RFP: also measured in rRNA inh HTS; calls as there; RFP signal change, %; measured here: RFP humanized mutant strains;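 first replicate; 0 = DMSO median and -100 = no signal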
The depositor's hits bear a star; · = no result given.

SMILES | Calb FLC | LANA-H2B inh | T cruzi inh | ALR H2O2 inh | Beta apoptosis | A1 inh | rRNA inh HTS | rRNA inh HTS OD600 | rRNA inh HTS RFP | Beta2AR agonist
CCc1nc2c3cnn(-c4cc(Cl)ccc4C)c3ncn2n1 | -29 | 2.8 | -3 | -6 | 3 | 1.0 | · | · | · | -8
O=C(CCN1CCN(Cc2ccccc2)CC1)NNC(=O)c1cc2ccccc2o1 | · | -0.2 | · | · | -1 | 2.1 | 3 | -1 | -3.7 | -8
O=C(CSc1ccccc1)NC(=O)NCc1ccccc1 | -2 | 1.0 | -2 | -2 | -1 | -0.8 | 4 | -3 | -2.3 | -6
O=C(N/N=C/c1ccc(O)c(O)c1)c1cc(-c2ccccc2)nc2ccccc12 | 1 | 1.0 | -28 | 74 | · | 0.3 | -14 | -11 | -3.5 | -4
O=C1NC(c2ccccc2OC(F)F)Oc2ccccc21 (configuration not stated) | 1 | -6.3 | -10 | -6 | -2 | 0.5 | -9 | -3 | 6.9 | 13
CCOc1ccc(NC(=O)c2cc3c(C)nc4ccccc4c3o2)cc1 | 8 | 6.8 | -12 | · | 13 | -0.1 | -7 | -11 | -0.6 | 19
Cn1c(SCC(=O)Nc2nccs2)nnc1C1CC1 | 14 | 2.2 | -10 | -6 | -3 | 0.6 | 15 | 14 | 3.5 | -10
COc1ccccc1NC(=S)Nc1ccc2cn[nH]c2c1 | 22 | 1.5 | -9 | -6 | -1 | 0.2 | · | · | · | -12
COc1cc(/C=c2\s/c(=C(/C#N)C(=O)N3CCCC3)n(-c3ccccc3)c2=O)ccc1O | -3 | -2.3 | · | 61 | 12 | -0.3 | · | · | · | -4
O=C(Nc1nc2cc3c(cc2s1)OCCO3)c1ccncc1 | -14 | -3.7 | · | -9 | -2 | -6.2 | 5 | -2 | -3.6 | -5

2 records drawn at random from the list so far:
SMILES | Calb FLC | LANA-H2B inh | T cruzi inh | ALR H2O2 inh | Beta apoptosis | A1 inh | rRNA inh HTS | rRNA inh HTS OD600 | rRNA inh HTS RFP | Beta2AR agonist
O=C1NC(c2ccccc2OC(F)F)Oc2ccccc21 (configuration not stated) | 1 | -6.3 | -10 | -6 | -2 | 0.5 | -9 | -3 | 6.9 | 13
CCOc1ccc(NC(=O)c2cc3c(C)nc4ccccc4c3o2)cc1 | 8 | 6.8 | -12 | · | 13 | -0.1 | -7 | -11 | -0.6 | 19

Remaining list, next part:
SMILES | Calb FLC | LANA-H2B inh | T cruzi inh | ALR H2O2 inh | Beta apoptosis | A1 inh | rRNA inh HTS | rRNA inh HTS OD600 | rRNA inh HTS RFP | Beta2AR agonist
N#C/C(=C\c1c(N2CCOCC2)nc2ccccn2c1=O)C(=O)NC1CCS(=O)(=O)C1 (configuration not stated) | -3 | -0.7 | -5 | 4 | -2 | 0.3 | 17 | 9 | -3.2 | -4
CCN1C(=C2C(=O)c3ccccc3C2=O)C=Cc2ccccc21 | -30 | -2.9 | -7 | 5 | 6 | 0.3 | · | · | · | 2
CC(C)CCNC(=O)C(=O)NCCC1=CCCCC1 | 0 | 6.6 | -6 | -24 | -8 | 0.7 | 6 | -4 | -0.2 | 1
Cc1ccc(S(=O)(=O)Nc2ccc(C(=O)N3CCCC3)cc2)c(C)c1NS(C)(=O)=O | -4 | 3.0 | -2 | 0 | -5 | 0.9 | 6 | 10 | -1.5 | -6
O=C(c1cc(-c2ccccn2)nc2ccc(Br)cc12)N1CCN(S(=O)(=O)c2ccccc2)CC1 | -10 | 0.7 | -13 | -3 | 3 | -0.3 | 20 | 15 | -0.6 | -14
COc1ccc(NC(=S)NC2CCCCC2)c(OC)c1 | 5 | -1.9 | 19 | -25 | 3 | -0.8 | -3 | 0 | -0.9 | 2
COc1ccc(C(=O)Nc2cc(Cl)ccc2-n2cncn2)c(OC)c1OC | · | -0.2 | · | 3 | 1 | -0.1 | · | · | · | -3
Cc1c(C(=O)O)oc2ccc(S(=O)(=O)N3CCCC3)cc12 | 1 | 1.9 | 7 | -3 | 3 | 1.9 | 19 | 21 | 4.3 | -6
Cc1n[nH]c(C)c1S(=O)(=O)N1CCC(C(=O)O)CC1 | -2 | -0.7 | 0 | -5 | -5 | 3.8 | · | · | · | 2
CCOC(=O)c1c(C)[nH]c(C(=O)OC)c1CCC(=O)OC | 1 | -4.5 | -6 | -2 | -1 | 0.3 | · | · | · | 2
COc1ccc(NC(=O)CN(C)CC(=O)N(C)C2(C#N)CCC(C)CC2)cc1 (configuration not stated) | · | -2.5 | · | · | -4 | -0.3 | · | · | · | 0
Cc1ccc(S(=O)(=O)/C(C#N)=C/c2c(N3CCC(C(N)=O)CC3)nc3c(C)cccn3c2=O)cc1 | 4 | -1.8 | 1 | · | -5 | -0.4 | · | · | · | -3
Cc1cc(C)cc(N=C2SC(CC(=O)Nc3ccccc3)C(=O)N2CCN2CCOCC2)c1 (configuration not stated) | 5 | 1.5 | 8 | -28 | -3 | -0.4 | -3 | -10 | 10 | -4
CCS(=O)(=O)N1Cc2ccccc2CC1C(=O)NCCc1c[nH]c2ccccc12 (configuration not stated) | 2 | 0.4 | 8 | · | 7 | 0.7 | 4 | 7 | 0.8 | -8
O=C(Cn1c(NCCCO)nc2ccccc21)c1ccc(Cl)cc1 | 0 | -1.3 | 12 | · | 6 | -0.4 | 0 | 2 | 14 | -1
CC(=O)NCCNc1nc2c(-c3ccccc3)nnn2c2ccccc12 | 4 | -0.6 | 35 | 7 | 6 | -1.5 | 3 | 4 | 0.2 | 10
COc1cc([C@@H]2c3cc4c(cc3[C@H](O)[C@H]3COC(=O)[C@H]23)OCO4)cc(OC)c1OC | · | -9.7 | 13 | · | · | -0.1 | 0 | 9 | -0.8 | 20
COc1ccc(N2CCN(CCC(O)c3ccc4ccccc4c3)CC2)cc1 (configuration not stated) | -11 | -0.7 | 26 | 52 | 1 | 1.7 | 1 | -11 | 0.5 | -6
COc1ccc(NC(=O)C23CC4CC(CC(Cl)(C4)C2)C3)cc1S(=O)(=O)N1CCOCC1 | · | 3.1 | · | 0 | 3 | 1.3 | -2 | -22 | 3.4 | -3
O=C(Nc1nnc(-c2ccc(F)cc2)s1)Nc1ccccc1F | -8 | 0.8 | 3 | -1 | -4 | -1.0 | 19 | 19 | 0.3 | 17
COc1ccccc1NS(=O)(=O)c1cc2c3c(c1)CC(=O)N3CCC2 | -3 | -0.8 | 5 | 8 | -2 | 0.1 | 2 | 2 | 2.1 | -2
Cc1ccc(S(=O)(=O)NCc2ccc(C(=O)NC3CC3)cc2)cc1 | -5 | 1.6 | 7 | -4 | 1 | -0.4 | 0 | 12 | -3.8 | -6
CCCCn1c(-c2cccc(F)c2)nc2c1c(=O)[nH]c(=O)n2CC(C)C | 4 | -0.5 | 16 | · | 3 | -0.1 | 6 | -5 | 1.0 | -3
Cc1oc(-c2ccccc2)cc1C(=O)NC1CCN(Cc2ccccc2)CC1 | -4 | -4.2 | 46 | 3 | · | 1.0 | 17 | 11 | 1.2 | 1
CC(C)C(C(=O)NCC1CCCO1)N(Cc1ccco1)C(=O)CNS(=O)(=O)c1ccccc1 (configuration not stated) | -8 | -1.4 | -7 | -28 | -6 | 0.5 | · | · | · | -8
Cc1ccc(C)c(NC(=O)C2CCCN(S(=O)(=O)c3ccc4[nH]c(=O)ccc4c3)C2)c1 (configuration not stated) | -2 | -3.3 | -10 | 32 | -2 | 0.1 | 3 | 21 | -0.5 | 0
Cc1ccnc(N/C=C(\C#N)c2nc(-c3cccc(Br)c3)cs2)c1 | 17 | -14 | 13 | -6 | -15 | 0.2 | · | · | · | -650
COc1ccccc1CNC(=O)CCNS(=O)(=O)/C=C/c1ccc(C)cc1 | · | -2.3 | · | 1 | 0 | 0.5 | -4 | -17 | 5.1 | -2
CC1CN(C(=O)c2cccs2)CCN1C(=O)c1cccs1 (configuration not stated) | -1 | -1.3 | 1 | -8 | -1 | 1.0 | · | · | · | 5
CC(C)N(C(=O)COC(=O)[C@H](C)NC(N)=O)c1ccccc1 | -8 | -2.8 | -23 | -8 | · | -0.5 | 11 | 4 | -3.5 | 1
O=C(/C=C/c1ccc(N2CCC(c3ccccc3)=N2)cc1)c1ccccc1 | 38 | -0.2 | 11 | 0 | 7 | -0.5 | 1 | -4 | 9.5 | ·
O=C(NC(Cc1ccccc1)C(=O)N1CCCC1C(=O)O)c1ccccc1 (configuration not stated) | 5 | -0.8 | -8 | 1 | -2 | -0.7 | · | · | · | -4
c1ccc2c(OCCCN3CCCCCC3)cccc2c1 | -4 | 0.5 | 29 | -78 | 18 | -0.1 | -12 | -11 | -4.1 | -2
Cc1ccc(C)n1-c1cccc(C(=O)O)c1 | 7 | 6.2 | -5 | -4 | -8 | 0.0 | · | · | · | ·
CCN(CC)CCNC(=O)Cn1cnc2sc(C)c(S(=O)(=O)N3CC(C)CC(C)C3)c2c1=O (configuration not stated) | -20 | 0.9 | 5 | 7 | 0 | -0.2 | 10 | 18 | -0.1 | 2
Cn1c(=O)n(CCc2ccccc2)c(=O)c2c1nc1n2CCCN1c1ccccc1 | 1 | 8.7 | 19 | -1 | 10 | 0.0 | 0 | 1 | 0.2 | 5
Cn1cc(CN2CCN(c3cnccn3)CC2)c(-c2cccc(Cl)c2)n1 | 0 | 5.4 | 12 | -5 | -6 | -0.2 | -6 | -14 | -3.2 | -12
C=CCc1cc(Cl)ccc1OCCCNC(C)CC (configuration not stated) | -34 | -4.8 | 20 | -5 | 2 | 0.1 | · | · | · | 16
COc1cccc(-c2nc(-c3ccc4c(c3)NC(=O)CO4)cs2)c1 | -11 | 5.6 | 16 | -21 | 1 | 0.1 | 13 | 15 | 3.0 | 0
CS(=O)(=O)N(CC(=O)NCc1ccco1)c1ccc(OCc2ccccc2)cc1 | -2 | -0.1 | -8 | -13 | -3 | -0.7 | -8 | -4 | -3.9 | -2
Cc1ccc2nc(C)c(C(=O)N/N=C/c3ccc(N4CCOCC4)cc3)cc2c1 | -2 | 1.3 | -4 | -1 | -2 | 0.0 | · | · | · | -3
COc1ccccc1CNC(=O)CS(=O)Cc1nc(-c2ccccc2C)oc1C (configuration not stated) | -5 | -1.1 | 47 | 99* | -6 | · | -5 | -20 | 4.7 | -12
COc1ccc(CNC(=O)C2CCN(C(=O)Cc3ccccc3)CC2)cc1 | -1 | 6.9 | -1 | · | -2 | -1.3 | -6 | 2 | -0.7 | 9
CC(C)(C)c1ccc(O)c(O)c1 | · | 0.9 | · | -7 | -7 | 0.1 | 0 | 3 | -1.1 | -4
COc1ccc(/C=C/C(=O)NC(C)CCc2ccccc2)cc1OC (configuration not stated) | -8 | -6.3 | 17 | -23 | 5 | -1.0 | · | · | · | -1
CC(NC(=O)c1ccc2c(c1)C(=O)N(Cc1cccnc1)C2=O)c1ccccc1 (configuration not stated) | 1 | 1.3 | -7 | -2 | -4 | -0.7 | 1 | 7 | 1.4 | 1

This is a subset, so the mix of outcomes need not match the whole.
